HIV TAR-Tat: HIV-1 TAR-Tat binding disruption; HIV-1 TAR RNA, Tat peptide displacement FRET; hits give high values; z-score (test concentration not listed); actives 0.6% (n = 100,000); AID 1259389;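 also: score is relative to mean and SD of negative controls; some compounds called inactive have numbers as strong as hits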
CDC25B-CDK2 inh: human CDC25B-CDK2/CyclinA binding inhibition. P30305+P24941. HTRF CDC25B-CDK2/CyclinA binding, anti-His/anti-Flag; hits give high values. z-score (concentration not given with the values). actives 0.72% (n = 94,000);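 also: score is relative to mean and SD of negative controls; strong numbers were not always called active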
* marks the source's active call; other numbers are inactive results; / = no result given; & = joins results of further samples.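 The calls were made as follows: active = z-score from 3 up in half or more of its runs; inactive = the rest.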

SMILES	HIV TAR-Tat	CDC25B-CDK2 inh
COc1ccc(C(C)=O)cc1CSC(=N)N	/	-2.8
O=C1NS(=O)(=O)c2ccccc2N1Cc1ccccc1	0.71	/
CC1CCCCN1C(=O)CSc1nc2cc3c(cc2c(=O)n1Cc1ccc2c(c1)OCO2)OCO3 (configuration not stated)	0.65	/
CCCCCC#CCC#CCC#CCC#CCCCC(=O)O	1.3	/
CC1CC(C)(C)N(C(=O)Nc2cccc(Cl)c2)c2ccccc21 (configuration not stated)	-0.46	-1.6
Cn1nnnc1SCCNCc1cc(Cl)ccc1OCc1ccc(Cl)cc1	0.36	-0.72
COC(=O)c1ccc(C(F)(F)C(F)(F)c2ccc(C(=O)OC)cc2)cc1	1.8	-0.2
CC(C)(C)NC(=S)Nc1ccc(C(F)(F)F)cc1[N+](=O)[O-]	/	-2.3
N#CC1=C(SCC(N)=O)NC(=O)CC1c1ccccc1 (configuration not stated)	1.3	-0.37
O=C(Cn1ncc2c3ccccc3n(Cc3ccccc3F)c2c1=O)N1CCCC1	-0.81	-1.4
CC1=C(C#N)C(c2ccc(N(C)C)cc2)C2=C(CCCC2=O)N1 (configuration not stated)	-3.1	0.54
CC(CCC(=O)O)[C@H]1CCC2C3CC[C@@H]4CC(=O)CC[C@]4(C)C3C=C[C@@]21C (some centres not stated)	-0.38	/

The final two records of the section above are carried over, then new ones follow:
SMILES	HIV TAR-Tat	CDC25B-CDK2 inh
CC1=C(C#N)C(c2ccc(N(C)C)cc2)C2=C(CCCC2=O)N1 (configuration not stated)	-3.1	0.54
CC(CCC(=O)O)[C@H]1CCC2C3CC[C@@H]4CC(=O)CC[C@]4(C)C3C=C[C@@]21C (some centres not stated)	-0.38	/
CC(=O)N(C)c1ccc(NC(=O)c2sc3ccccc3c2Cl)cc1	-1.8	1.1
CC1(C)Cc2nc3sc4c(=O)n(CC(=O)NCc5ccco5)cnc4c3cc2CO1	1.3	/
Fc1ccc(Cn2nnc(-c3ccc(Cl)cc3)n2)cc1	/	-1.1
O=C(CN1CCN(Cc2ccccc2)CC1)N1CCN(c2ccccn2)CC1	/	1.4
CCN(CC)c1ccc(C2OCC3(CO2)SC2=NCN(C)CN2C3=O)cc1 (configuration not stated)	/	-1.1
COc1ccc(CCNc2nc3ccc(Cl)cc3n3cnnc23)cc1OC	0.53	0.2
CCN(CC)c1nc(NCc2ccccc2C)c2cnn(C)c2n1	0.92	/
CCOC(=O)C1CCN(C(=O)CCc2c(C)nc3ncnn3c2C)CC1	-0.22	-1.1
CCCS(=O)(=O)NCc1nnnn1-c1ccc(OCC)cc1	0.7	/
Cc1cccc(-n2nnc(-c3nc(-c4ccc(Br)cc4)no3)c2N)c1C	-0.85	/
Cc1ccc(S(=O)(=O)N(CCS(=O)(=O)N2CCNCC2)Cc2ccc(F)cc2)cc1	0.17	/
Cn1c(=O)c(NCc2ccccc2)c2c3c(cccc31)C(=O)c1ccccc1-2	-0.62	-0.07
O=C(COC(=O)c1ccccc1F)c1ccc(-n2nncc2-c2ccc(F)cc2)cc1	-0.29	/
Cc1ccc2c(=O)cc(C(=O)Nc3nc4ccc(Cl)cc4s3)oc2c1C	0.68	1.7
CCOC(=O)c1ccc2[nH]c(CSc3n[nH]c(C)n3)cc(=O)c2c1	-0.05	/
Cc1ccc(S(=O)(=O)NC(=O)NC2CCCc3ccccc32)cc1 (configuration not stated)	/	-0.8
O=C1C(Cl)=C(Sc2ccccc2Br)C(=O)c2ccccc21	/	-1
CN1CCn2c1nc(N1CCOCC1)nc2=O	0.64	-1.8
CN(Cc1ccccc1)c1oc(/C=C/c2cccs2)nc1C#N	-0.47	-0.78
Cc1cc(C)cc(NS(=O)(=O)c2ccc3c(c2)C(C)(C)C(=O)N3C)c1	1.3	/
COc1cc2c(=O)c(C(=O)c3ccc(F)cc3)cn(Cc3ccc(F)cc3)c2cc1OC	0.21	0.11
COc1ccc(S(=O)(=O)N2CCc3cc4ccc(C)cc4nc32)cc1Cl	0.56	-0.87
O=C(Nc1sc2c(c1C(=O)NCC1CCCO1)CCCC2)c1cc(-c2cccs2)on1 (configuration not stated)	-0.76	-2.3
CC1(C)Cc2c(c(N3CCOCC3)nc3sc(C(=O)c4ccccc4)c(N)c23)CO1	-0.43	-1

Entries above that have a COOH group, in the order listed:
SMILES	HIV TAR-Tat	CDC25B-CDK2 inh
CCCCCC#CCC#CCC#CCC#CCCCC(=O)O	1.3	/
CC(CCC(=O)O)[C@H]1CCC2C3CC[C@@H]4CC(=O)CC[C@]4(C)C3C=C[C@@]21C (some centres not stated)	-0.38	/

(next part)
SMILES	HIV TAR-Tat	CDC25B-CDK2 inh
COc1ccc(-c2noc(-c3c(-c4ccccc4Cl)noc3C)n2)cc1OC	2	-1.5
Cc1cccc(C(=O)Nc2cnc3sc(C(C)C)nn3c2=O)c1	0.47	-0.5
CCCOC(=O)C1=C(C)NC2=C(C(=O)CC(c3ccccc3OC)C2)C1c1coc2ccccc2c1=O (configuration not stated)	1.8	-2.4
Cc1ccc(C2Nn3c(nnc3-c3ccccc3)SC2C(=O)N2CCOCC2)cc1 (configuration not stated)	0.68	0.96
CCOC(=O)C1CCCN(c2c(NCCCN3CCCCCC3)c(=O)c2=O)C1 (configuration not stated)	/	-0.97
O=C1c2oc3ccccc3c(=O)c2C(c2ccc(OCc3ccccc3)cc2)N1c1nccs1 (configuration not stated)	0.6	0.84
CCCCCC1CCC(C(=O)O)CC1 (configuration not stated)	2.9	-0.75
Cc1ccc(N(C)NC(=O)NC(=O)c2c(F)cccc2Cl)nn1	/	-1.8
Cc1cc(Cl)ccc1NS(=O)(=O)c1ccc2c(c1)CC(C)N2C(=O)C1CCC1 (configuration not stated)	2	/
O=C1CC(c2cccc(C(F)(F)F)c2)c2cc3c(cc2N1)OCCO3 (configuration not stated)	/	-2.3
CCn1cc(C(=O)N2CCc3ccccc32)c(=O)c2cc(S(=O)(=O)N3CCCC3)ccc21	/	-0.13
Cc1noc(C(=O)NCC2CCCO2)c1Cl (configuration not stated)	-0.12	-0.71
OCCSc1nnc(COc2ccc(Cl)cc2)n1Cc1ccccc1	0.71	-1
O=c1cc2nc(-c3ccccc3)nc(SCc3ccc(Br)cc3)n2[nH]1	1.6	/
Cc1ccc(-n2c(=O)[nH]c3c(C(N)=O)nc(-c4cccs4)nc32)cc1C	-0.19	/
Cc1oc(-c2ccccc2)nc1CS(=O)CC(=O)O (configuration not stated)	0.46	/
Cn1c(=O)c2c(-c3ccccc3)n3c(c2n(C)c1=O)C(c1ccc(O)cc1O)Nc1ccccc1-3 (configuration not stated)	-1.4	-0.7
Cc1[nH]nc(-c2ccc(S(=O)(=O)NCc3ccccn3)s2)c1C	-0.4	/
C=CCc1cccc(/C=N/Nc2nc(-c3cc4cc(OC)ccc4oc3=O)cs2)c1O	/	-0.57
CCOC(=O)c1sc(Nc2nc(NC(C)C)nc(NC(C)C)n2)nc1C	1.1	-2.1
O=C(Cn1ncc2c1-c1ccccc1OC2)N1CCCC1	/	-1.1
Cc1cccc(C(=O)Nc2cnc3sc4c(n3c2=O)CCC(C(C)(C)C)C4)c1 (configuration not stated)	0.42	-2
O=C(c1ccco1)N1CCN(S(=O)(=O)c2cnc[nH]2)CC1	0.7	/
O=C(NC1CCCC1)c1ccc(CSCc2ccccc2F)o1	/	-0.75
COc1ccc(CC2C(=O)Nc3ccccc32)c(OC)c1 (configuration not stated)	-2	-1.3
CC12CCC(C(=O)N3CCSCC3)(OC1=O)C2(C)C (configuration not stated)	/	-0.54
C=CCNC(=O)c1c(O)nc2cc(C)ccn2c1=O	-0.57	-2.6
O=C(NC(=S)N1CCN(C(=S)NC(=O)c2ccccc2)CC1)c1ccccc1	/	-1.5
CCOC(CC(=O)NNS(=O)(=O)c1ccc(Cl)cc1)OCC	/	-2.7
Cc1ccc(Cl)cc1-n1nnc(-c2nc(-c3ccccc3Cl)no2)c1N	0.96	/
O=c1c2cccnc2nc(SCc2cc(=O)n3ccccc3n2)n1CCc1ccccc1	-0.6	-0.92
CC(=O)Oc1ccc(C2OC(c3cc(C4CC4)nc4ccccc34)=NN2C(C)=O)c(OC(C)=O)c1 (configuration not stated)	1.2	/
CCc1cc2c(cc3c(=O)n(CC(=O)NCc4ccccn4)ncn32)s1	-0.32	-1.6
Cn1cc(S(=O)(=O)c2ccc(Cl)cc2)c(=O)c2cc(F)ccc21	2.4	-0.49
Clc1ccc2nc3c(nc2c1)Nc1ccccc1S3	/	-1.4
CCOC(=O)C1CCCN(c2cc(NCCO)c3c4c(onc24)-c2ccccc2C3=O)C1 (configuration not stated)	8.8*	0.97

Exported bar-delimited: entries from further up.
structure | HIV TAR-Tat | CDC25B-CDK2 inh
O=c1c2cccnc2nc(SCc2cc(=O)n3ccccc3n2)n1CCc1ccccc1 | -0.6 | -0.92
CC(=O)Oc1ccc(C2OC(c3cc(C4CC4)nc4ccccc34)=NN2C(C)=O)c(OC(C)=O)c1 (configuration not stated) | 1.2 | /
CCc1cc2c(cc3c(=O)n(CC(=O)NCc4ccccn4)ncn32)s1 | -0.32 | -1.6
Cn1cc(S(=O)(=O)c2ccc(Cl)cc2)c(=O)c2cc(F)ccc21 | 2.4 | -0.49
Clc1ccc2nc3c(nc2c1)Nc1ccccc1S3 | / | -1.4

Additional compounds.
SMILES	HIV TAR-Tat	CDC25B-CDK2 inh
Cn1c(=O)c2c(nc(CN3CCN(Cc4ccccc4)CC3)n2Cc2ccccc2F)n(C)c1=O	-0.09	-1.5
CN(c1ccccc1)S(=O)(=O)c1ccc(NC(=O)c2nn(-c3ccc(Cl)cc3)ccc2=O)cc1	0.33	-1.1
O=C(c1ccc2c(Cl)c3c(nc2c1)CCC3)N1CCN(C2CCCCC2)CC1	-0.56	-1.9
Cc1cc(SCc2c(F)cccc2Cl)nc(C)n1	-0.5	-1.1
CCn1nc(C)c(CNC(=O)Nc2ccccc2)c1C	1.1	/
COCCNC(=O)Cn1c(=S)[nH]c2c([nH]c3ccc(OC)cc32)c1=O	/	-2.3
COc1ccc(C2(CNS(=O)(=O)c3ccccc3)CCCC2)cc1OC	3	-1.6
OCCCNc1ncnc2c1cnn2-c1cccc(Cl)c1	-0.22	/
NC(N)=NC(N)=Nc1ccccc1	2.9	-0.49&-0.99
CC1(C(=O)NC2CCCC2)Cn2c(ccc2-c2ccco2)C(=O)N1c1ccc(Cl)cc1 (configuration not stated)	0.75	/
CCCc1nnc2n1N=C(c1ccc(F)cc1)CS2	0.16	-1.3
COc1ccccc1C1N=C(N)Nc2nc3ccccc3n21 (configuration not stated)	1.4	6.7
CC(C)(C)NC(=O)NCC1CCCC1NC(=O)NC(C)(C)C (configuration not stated)	/	-2
Cc1cc(NC(=O)CC(C)S(=O)(=O)c2ccc3c(c2)CCN3C(=O)C2CC2)no1 (configuration not stated)	-0.6	/
CC(C)Oc1ccc(C(=O)Nc2c3c(nn2C(C)(C)C)CS(=O)(=O)C3)cc1	1	/
CC(=O)C1C(c2ccc(C(C)C)cc2)NC(=O)NC1(O)C(F)(F)F (configuration not stated)	/	0.29
CC1CCN(S(=O)(=O)c2ccc3[nH]c(=O)cc(C(=O)NCCCN4CCCCC4)c3c2)CC1	/	-1.9
O=C1c2cccnc2C(=O)N1Cc1ccc(S(=O)(=O)NC2CCCCC2)s1	0	/
Cc1nn(C)c(C)c1CNC(=O)NCC1CCCO1 (configuration not stated)	1.4	/
CCOc1nc(C)ccc1-c1noc(-c2ccco2)n1	-0.32	-0.73
CC1(C)CC(=O)C2=C(C1)Nc1ccccc1N(C(=O)Nc1ccc(F)cc1)C2c1cccs1 (configuration not stated)	0.98	/
CCc1cc2c3c([nH]c2cc1S(=O)(=O)NCc1cccs1)CC(C)(C)CC3=O	1.6	/
O=C(NCc1ccccc1)c1ccc(Cl)c(NC2=NC3CS(=O)(=O)CC3S2)c1 (configuration not stated)	4.1	/
Cc1nc(N2CCN(C)CC2)ncc1C(=O)NCCc1cccs1	1.9	/

Grouped by structure, the entries above containing bromine
SMILES	HIV TAR-Tat	CDC25B-CDK2 inh
Cc1cccc(-n2nnc(-c3nc(-c4ccc(Br)cc4)no3)c2N)c1C	-0.85	/
O=C1C(Cl)=C(Sc2ccccc2Br)C(=O)c2ccccc21	/	-1
O=c1cc2nc(-c3ccccc3)nc(SCc3ccc(Br)cc3)n2[nH]1	1.6	/

(more compounds)
SMILES	HIV TAR-Tat	CDC25B-CDK2 inh
Cc1cc2n(n1)CCCN2C(=O)CCC(=O)O	-0.25	1.4
Nc1ncnc2c1ncn2CCNCCc1ccccc1	-1.2	-1.3
Cc1ccc2nc3c(cc(C#N)c(=O)n3-c3cccc(Cl)c3)c(=O)n2c1	1.1	-0.11
Cc1ccc2nc(Nc3ccc(Br)cc3)c3nnnn3c2c1	0.78	/
Cn1nc(C(C)(C)C)cc1C(=O)O/N=C(\N)c1ccccc1	/	-0.09
COc1ccccc1OCCn1cc(C(=O)C2CC2)c2ccccc21	3.8	-1.5
N#Cc1c(SCC(N)=O)nsc1SCC(N)=O	/	-0.98
CCOC(=O)C1CCN(C(=O)Nc2cn(C)c(=O)c3ccccc23)CC1	2.1	/
Cc1ccc2c(=O)cc(C(=O)Nc3sc4c(c3C(=O)NCC3CCCO3)CCC4)oc2c1C (configuration not stated)	-1.2	-0.31
CCOc1ccc2nc(NC(=O)CCS(=O)(=O)c3ccc4c(c3)CCN4C(=O)CC)sc2c1	0.95	/
CCC(C)c1c(O)nc2n(c1=O)CCCS2 (configuration not stated)	/	0.18
COc1ccc(-c2cc(-c3cccs3)[nH]c(=S)c2C#N)cc1	-0.8	-0.16
O=C(Nc1ccccc1)N1CCCC1c1cccs1 (configuration not stated)	1.7	0.46
CCn1c2ccccc2c2cc(CN3CCN(Cc4cccc([N+](=O)[O-])c4)CC3)ccc21	/	2.7
O=C(NC1CCCCC1)NC1(C(F)(F)F)Oc2ccccc2O1	/	2.1
COc1ccc(-n2nnc(-c3nc(-c4ccc(C)cc4)no3)c2N)cc1Cl	-0.06	/

Screening data as filed in PubChem BioAssay.
